VACV mCherry inh = inhibitors of vaccinia virus infection (mCherry reporter signal). Vaccinia virus mCherry reporter infection, fluorescence; about a quarter of the inactives have no number. 310,000 tested, 0.63% active. Potency, µM (top dose mostly 36.5 µM), for the others: at the highest dose activity change, negative = inhibition, most hits filed as inhibitors. AID 720579; active = well fitted inhibition curve with a large enough effect; inconclusive = small, poorly fitted or top-dose-only effect; inactive = no such curve, though single readings can be large or run the other way; tested in A549 cells; further: nearly all actives have a fitted effect of over 35% in size; inactives centre near -10
VACV Venus inh = vaccinia inhibition (Venus reporter); Vaccinia virus Venus reporter expression, fluorescence; AID 720580; Potency, µM (highest dose often 36.5 µM), for inactives: top-dose activity change, negative = inhibition, most hits filed as inhibitors; 330,000 tested, 0.46% active; active means well fitted inhibition curve with a large enough effect; inconclusive means small, poorly fitted or top-dose-only effect; inactive means no such curve, though single readings can be large or run the other way; tested in A549 cells; further: nearly all actives have a fitted effect of over 30% in size; inactives centre near -10
The depositor's hits bear a star; i = inactive; ? = inconclusive; / = not tested or not shown; & = joins results of further samples; [ ] = another dose, or the depositor's remark. On the % scale 0 is the no-effect control and ±100 the full control effect; potency means the concentration at half of the fitted maximal effect. Outcome played no part in choosing rows (roughly 0.82% active in at least one column).

SMILES | VACV mCherry inh | VACV Venus inh
Cc1ccc(-n2nnnc2SCC(=O)NCCc2ccccc2)cc1C | i | -8%
COc1cc(C(=O)Nc2ccc(-c3nc4cc(C)c(C)cc4o3)cc2)cc(OC)c1OC | -4% | -3%
COc1cccc(C(=O)NCc2cn3cccc(C)c3n2)c1 | -8% | -4%
CC1(C)CC2CC(C)(CN2CC(O)COc2ccccc2)C1 (stereo not given) | 0% | -11%
O=C(Nc1ccc2ccccc2c1)/C(=C/c1cccc(Br)c1)NC(=O)c1ccco1 | i | -1%
Cc1cc(C)cc(OCC(=O)Nc2ccc3c(c2)C(=O)c2ccccc2C3=O)c1 | -11% | 14%
Cc1ccc2cccc(OC(=O)c3c(F)cccc3Cl)c2n1 | 4% | 5%
O=C(NC(=S)NCCN1CCOCC1)c1ccc(F)cc1 | -10% | -9%
NC(=O)C1CCCN(C(=O)c2[nH]c(C(F)(F)F)nc2-c2ccccc2)C1 (stereo not given) | 18% | 3%
ON(CCc1ccccn1)Cc1ccccc1 | i | 2%
CC(Sc1ccc2c(c1)OCCO2)C(=O)Nc1ccc(N2CCOCC2)cc1 (stereo not given) | -4% | 0%
c1ccc(N2[C@@H]3CC[C@H]2c2ccccc2C3)cc1 | -27% | -19%
COc1ccc(N2CCN(c3ncccc3-c3nc(-c4ccccc4C)no3)CC2)cc1 | -8% | 10%
CN(C)c1ccc(/C=C2\SC(=O)N(CCc3nnc(N)s3)C2=O)cc1 | -7% | 31%[activator]
CCOC(=O)c1cc(-c2ccc(C)cc2)n(CCC(=O)Nc2ccc(C(C)C)cc2)c1C | -12% | -9%
COc1ccc(NC(=O)CN(C)C(=O)c2ccc3c(c2)S(=O)(=O)N=C2CCCCCN23)cc1 | -8% | -11%
CCNC(=S)N(CCc1c(C)[nH]c2ccccc12)Cc1cc(OC)c(OC)c(OC)c1 | -29% | -19%
Cc1cccc(N(CC(=O)Nc2cccc(Cl)c2C)S(C)(=O)=O)c1C | -9% | 11%
NC(=O)CSc1nnc(COc2ccccc2)n1CCc1ccccc1 | -1% | -10%
COCCC1CCCCN1Cc1nc(N2CCCCC2)c2cc(OC)c(OC)cc2n1 (stereo not given) | -15% | -1%
O=C(NNC(=O)c1ccccc1-n1cccc1)c1ccc(Cl)c(Cl)c1 | / | -20%
COc1ccc2c(COC(=O)c3ccc(C)c(S(=O)(=O)N4CCOCC4)c3)cc(=O)oc2c1 | -18% | -17%
Cc1ccc(-c2cc(C(F)F)n3ncc(C(=O)Nc4ccc(S(=O)(=O)Nc5ccccc5C)cc4)c3n2)cc1 | / | -13%
CCOC(=O)N1CCN(c2c(NCc3ccc(N(C)C)cc3)c(=O)c2=O)CC1 | -27% | -20%
COCCNC(=O)C(=O)Nc1ccc2c(c1)N(S(=O)(=O)c1cccs1)CCC2 | -15% | ?

Structural class: those above with fluorine (4)
SMILES | VACV mCherry inh | VACV Venus inh
Cc1ccc2cccc(OC(=O)c3c(F)cccc3Cl)c2n1 | 4% | 5%
O=C(NC(=S)NCCN1CCOCC1)c1ccc(F)cc1 | -10% | -9%
NC(=O)C1CCCN(C(=O)c2[nH]c(C(F)(F)F)nc2-c2ccccc2)C1 (stereo not given) | 18% | 3%
Cc1ccc(-c2cc(C(F)F)n3ncc(C(=O)Nc4ccc(S(=O)(=O)Nc5ccccc5C)cc4)c3n2)cc1 | / | -13%

Back to the main list with the 2 entries that preceded the break.
SMILES | VACV mCherry inh | VACV Venus inh
CCOC(=O)N1CCN(c2c(NCc3ccc(N(C)C)cc3)c(=O)c2=O)CC1 | -27% | -20%
COCCNC(=O)C(=O)Nc1ccc2c(c1)N(S(=O)(=O)c1cccs1)CCC2 | -15% | ?
COc1ccc(S(=O)(=O)NC(CC(=O)NCCc2ccc(OC)c(OC)c2)C(C)C)cc1 (stereo not given) | -8% | -5%
O=C(CSc1nc(-c2ccco2)nc2cc(=O)[nH]n12)Nc1ccccc1Cl | -10% | -5%
COc1ccc(N(Cc2cccs2)C(=O)c2ccc(OCC(C)C)cc2)cc1 | -12% | -9%
CCSc1nc2c([nH]c3ccccc32)c(=O)n1-c1ccc(F)cc1 | -19% | -26%
CC(C)(C)c1cc(C(=O)N/N=C/c2ccco2)n[nH]1 | -17% | -8%
C[N+]1(C)CCC(OC(=O)C(O)(c2ccccc2)C2CCCC2)C1 (stereo not given) | -21% | -2%
O=C(NC1CC2CCCC(C1)N2)c1ccccc1 (stereo not given) | i | -8%
NNC(=O)c1nc(-c2ccccc2)n2c1CCCCC2 | -7% | -4%
CCNC1=C(Cl)C(=O)c2ccccc2C1=O | / | ?
COc1cc(C)ccc1OCCSc1nc2ccc(NC(=O)c3ccc4c(c3)OCO4)cc2s1 | -23% | -25%
O=C(Nc1sc2c(c1C(=O)O)CCCC2)c1ccc(Cl)cc1 | -9% | -27%
Cn1cccc1C(=O)NC(=O)COC(=O)c1cc(S(=O)(=O)N2CCCCC2)ccc1Cl | -13% | -18%
CCC1(CC(C)C)SC(N)=NC1=O (stereo not given) | i | -2%
COc1ccc(S(=O)(=O)N2CCCOC2CNC(=O)C(=O)NCCCN2CCOCC2)cc1C (stereo not given) | -18% | -9%
COc1cccc(-c2cc3onc(-c4ccccc4)c3c(=O)n2C)c1 | -29% | -26%
Cc1ccc(S(=O)(=O)N/N=C/c2cc(Br)c(C)o2)cc1 | / | -16%
CC(C)=CC(=O)N1CCC(Oc2cccc(C(=O)NCc3ccccn3)c2)CC1 | i | -15%
CC1(C)CC(=O)c2cc(C(=O)Nc3cccc4ccccc34)c(=O)[nH]c2C1 | -19% | -22%
CCCc1nn2c(=O)cc(COC(=O)c3ccccc3NC(=O)C3CCCCC3)nc2s1 | -25% | -21%
CN(Cc1ccccc1)C(=O)CN1C(=O)c2ccccc2S1(=O)=O | -2% | -4%
O=C(NCc1cccnc1)C1CCN(Cc2cc3ccccc3n2Cc2ccccc2)CC1 | -12% | -10%
OCCCNCc1cc2ccc(F)cc2nc1N1CCN(c2cccc(Cl)c2)CC1 | ? | -16%
O=C(O)CCCC(=O)Nc1c(F)c(F)c(F)c(F)c1F | / | -21%
COc1cc2nc(N(CCCN(C)C)C(=O)c3ccc(S(=O)(=O)N(C)C4CCCCC4)cc3)sc2cc1OC | -13% | -26%
CC1CCN(C(=O)Cn2cc(SCc3cccc(F)c3)c3ccccc32)CC1 | -9% | -12%

Fetched one by one from the list above, 4 records:
SMILES | VACV mCherry inh | VACV Venus inh
Cn1cccc1C(=O)NC(=O)COC(=O)c1cc(S(=O)(=O)N2CCCCC2)ccc1Cl | -13% | -18%
COc1cc(C)ccc1OCCSc1nc2ccc(NC(=O)c3ccc4c(c3)OCO4)cc2s1 | -23% | -25%
CCCc1nn2c(=O)cc(COC(=O)c3ccccc3NC(=O)C3CCCCC3)nc2s1 | -25% | -21%
OCCCNCc1cc2ccc(F)cc2nc1N1CCN(c2cccc(Cl)c2)CC1 | ? | -16%

Going on with the list:
SMILES | VACV mCherry inh | VACV Venus inh
CCOc1ccc(OCC)c(NC(=O)c2cc3ccccn3n2)c1 | -12% | -4%
O=C1c2ccccc2C(=O)N1CC#CCN1CCN(C(c2ccccc2)c2ccccc2)CC1 | -12%[1.46 µM] | -29%
Cc1ccc(CCNC(=O)CCS(=O)(=O)c2cc3c(cc2Cl)NC(=O)CO3)cc1 | 4% | 10%
O=C(NC(Nc1ncc(S(=O)(=O)c2ccc([N+](=O)[O-])cc2)s1)(C(F)(F)F)C(F)(F)F)c1ccc(Cl)cc1 | 18µM* | ?
Cc1ccc(C(=O)NCc2nc3ccccc3[nH]2)o1 | i | -4%
Cc1ccc(C)c(CN2CCC(n3nccc3NC(=O)C3CCCC3)CC2)c1 | -4% | -21%
COC(=O)C[C@@H]1OC[C@H](C)N1S(=O)(=O)c1ccc(C)cc1 | 1% | -1%
O=C(C1CCCN(CCCc2ccccc2)C1)N1CCCCC1 (stereo not given) | i | -7%
Cc1ccc(CN2C(=O)CCC2C(=O)NC(C)C)cc1 (stereo not given) | / | -1%
C/C(=N/NC(=O)CSc1nc2ccccc2n1C)c1ccc(O)cc1 | -13% | -11%
CCNC(=O)C1(C)CCCN(Cc2cc(-c3ccccc3)n(C)n2)C1 (stereo not given) | 5% | -7%
Cc1ccc(C(=O)Nc2cccc(NC(=O)c3cccnc3)c2)cc1 | -1% | -3%
COC(=O)c1cc(-c2ccc(OC)c(OC)c2)c2c(=O)[nH]c(=O)n(C)c2n1 | -17% | -15%
O=C(CSc1nccn1C1CCCC1)Nc1cccc(F)c1 | -11% | -16%
Cc1cc(O)c(C2(O)C(=O)Nc3cc(Br)ccc32)cc1C (stereo not given) | i | ?
CCOCCCN1CC(C(=O)NCCc2ccc(C)cc2)CC1=O (stereo not given) | / | -9%
NCC(O)CC(=O)O (stereo not given) | i | -12%
CC(=O)Nc1ccc(/C=N/OCC(=O)Nc2ccc(C)cc2)cc1 | -14% | -1%
O=C(NCCc1ccc(Cl)cc1)C1(c2cccs2)CCOCC1 | -5% | 2%
Cc1ccccc1N/N=C/c1ccc(C#N)cc1 | -3% | -7%
Cc1ccc(CNC(=O)CCC2CCCN(Cc3cccc4cccnc34)C2)o1 (stereo not given) | -6% | 2%
COc1ccccc1NC(=S)NC(=O)Cc1ccc(Cl)cc1 | -11% | -19%
CCOC(=O)CN(C(=O)CNC(=O)c1ccco1)C(C(=O)NC1CCCC1)c1ccccc1OCC (stereo not given) | -18% | -15%
COc1ccc(/C=N/NC(=O)c2cccc(NC(C)=O)c2)c(OC)c1 | 6% | 2%
Cc1ccc(C(=O)c2cn(CC(=O)Nc3ccc(C)cc3Cl)c3nc(C)ccc3c2=O)cc1 | ? | -25%
Carrying on.
SMILES | VACV mCherry inh | VACV Venus inh
Cc1ccc(NC(=O)Nc2nnc(N3CCCC3)s2)cc1C | 3% | -13%
COc1ccc(NC(=O)C2CCCN2S(=O)(=O)c2cccc3cccnc23)cc1OC (stereo not given) | -15% | -6%
CCn1c(Cc2cccs2)nnc1SCC(=O)NC1CC1 | i | -16%
C=CCNC(=S)Nc1ccc2nc(C)oc2c1 | i | -22%
O=C(COC(=O)C1CCC(=O)N1)Nc1ccc(Cl)cc1Cl (stereo not given) | -13% | -14%
CC1CCCN(CC(=O)Nc2ccc(S(=O)(=O)N3C(C)CCCC3C)cc2)C1 (stereo not given) | -7% | -35%
Cc1ccc(-c2cc(C(=O)N(C)Cc3cnn(C)c3C)c3cc(Br)ccc3n2)cc1 | -8% | -12%
COc1ccc(CN(C(=O)c2ccco2)c2ccc(Br)cc2)cc1OC | -7% | 7%
COc1cc(OC)cc(C(=O)Nc2cc3c(cc2N2CCOCC2)n(C)c(=O)n3C)c1 | -16% | 3%
COc1ccc(-c2c(-c3ccsc3)oc3c2C(O)CCC3)cn1 (stereo not given) | 4% | -2%
CCN(CC)C(=O)Cn1c(=O)n(CC2CCC(C(=O)NC)CC2)c(=O)c2sccc21 (stereo not given) | -9% | -2%
Cc1cccc(C(=O)Nc2cccc(OCC(=O)O)c2)c1 | -10% | 8%
O=C(Nc1ccc2c(c1)CCC2)c1ccccc1Br | -19% | -14%
CN(C)CCN1C(=O)NC(C)(c2ccc([N+](=O)[O-])cc2)C1=O (stereo not given) | -11% | -6%
CCC1CCCCN1Cc1nc(Cc2ccccc2Cl)no1 (stereo not given) | i | -6%
CC(C)(C)C(=O)/C=c1\[nH]c(=O)/c(=C\c2ccc(F)cc2)s1 | / | 11µM*
Cn1c(N)c(C(=O)COC(=O)c2ccc(Cl)nc2)c(=O)n(C)c1=O | -9% | -2%
CCC(=O)N1CCc2cc(S(=O)(=O)NC(Cc3ccccc3)C(=O)NCc3ccc(C)cc3)ccc21 (stereo not given) | -6% | -1%
COc1cccc(N2C(=O)CC(Nc3ccc(N4CCOCC4)cc3)C2=O)c1 (stereo not given) | -12% | 6%
CCOC(=O)c1c(NC(=O)CSc2nnc(-c3c[nH]c4ccccc34)n2CCOC)sc2c1CCCCC2 | ? | ?
O=C(Cc1ccccc1F)Nc1ccc(SC(F)F)cc1 | -11% | -12%
COc1ccc(OC)c(C2=NOC(C(=O)NCc3cccnc3)C2)c1 (stereo not given) | -25% | -17%
Cc1ccc2c(c1)sc1nc(=O)n(-c3ccc(Cl)cc3)c(=O)n12 | -6% | 5%
CCOC(=O)c1cnc(-n2nc(C)cc2C)nc1Oc1ccc(C#N)cc1 | -10% | 3%
COc1ccc(C(C)=O)cc1CSc1nc2ccccc2c(=O)n1-c1ccccc1C | -27% | -30%
The list continues:
SMILES | VACV mCherry inh | VACV Venus inh
Cc1cc(Nc2cccc(Br)c2)n2c(nc3ccccc32)c1C#N | ? | -28%
COc1ccccc1/C=C/C(=O)NCCC1=CCCCC1 | i | 1%
Cc1c(Cl)cccc1NC(=O)C1CCN(c2nc3ccccc3[nH]2)CC1 | -8% | -6%
O=C(O)CCCNS(=O)(=O)c1ccc2c(c1)OCCCO2 | -18% | -13%
CCc1ccc(NC(=O)c2cc(S(=O)(=O)N3CCCC3)ccc2F)cc1 | ? | -29%&-25%
COc1cc2[nH]c(=O)n(CCC(=O)N3CCN(Cc4ccccc4)CC3)c(=O)c2cc1OC | i | 19%
CCN1CCN(c2nnc(-c3ccc(F)cc3)c3ccccc23)CC1 | -12% | ?
Cc1nnc(SC(C)C(=O)Nc2ccc(N3CCOCC3)cc2)n1Cc1ccccc1 (stereo not given) | -14% | -13%
CCOC(=O)C1CCN(C(=O)COC(=O)C2CCN(S(=O)(=O)c3ccc(C)c(C)c3)CC2)CC1 | -10% | -12%
O=c1cc(-c2ccc3c(c2)OCCO3)oc2ccc(Cl)cc12 | -14% | -13%

Screening data deposited in PubChem by National Center for Advancing Translational Sciences (NCATS).
